D2 potentiator: potentiates the human D2 dopamine receptor allosterically; P14416; DiscoveRx D2 beta-arrestin cells, luminescence, 90 min; 100% = 57 uM dopamine signal; potentiation, % (concentration not given with the values); 0.23% of 360,000 active; AID 624464; active = potentiation of 50% or more; inconclusive = 30% to 50%; inactive = 30% or less;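 also: compound concentration not given in the record; tested on top of an EC20 dose of dopamine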
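PathHunter D2 cells, attached overnight at 37 deg C, received compound in DMSO plus dopamine at EC20 (50 nM final) for 90 min at 37 deg C. Beta-arrestin recruitment was read as luminescence after 1 h with detection reagent at ambient temperature.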
D2 agonist: agonists of human D2 dopamine receptor (beta-arrestin) | P14416 | 0.084% of 360,000 active | activation, % (concentration not given with the values) | DiscoveRx PathHunter D2 beta-arrestin, luminescence, 90 min; 100% = 57 uM dopamine signal; in the data active = activation above about 40%; inconclusive = about 15% to 40%; inactive = below about 15%; also: compound concentration not given in the record; the text of the record calls up to 30% inactive
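DiscoveRx PathHunter D2 beta-arrestin cells (2,100/well) attached overnight, then compound-stimulated 90 min at 37 C in HBSS/10 mM HEPES/0.1% Tween-20 buffer; beta-galactosidase complementation read by luminescence after 1 h at ambient temperature. Dopamine 57 uM final (EC100) as control.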
PINK1 modulator: modulators of PINK1 expression; PINK1 immunofluorescence, high-content cytometry, 24 h; 0.2% of 410,000 active; Potency, µM (doses to about 76.6 µM), for the others: at the highest dose activation (PINK1 increase), hits mostly activators; AID 624263; active = well fitted activation curve with a large enough effect; inconclusive = small, poorly fitted or top-dose-only effect; inactive = flat fitted curve, though single readings scatter; cell line not stated here;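 also: potency is read from the fitted curve at half-maximal effect; % of control where 0% means no effect; nearly all actives have a fitted effect of over 65% in size; a mitochondrial uncoupler was the plate control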
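Cells are seeded, rested 12 hours, then given compound at five concentrations or DMSO for 24 hours. After fixation, blocking and antibody staining, PINK1 amount and mitochondrial localization are scored; CCCP serves as control.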
Six1-Eya2 blk: blocks human Six1 binding to Eya2. Q15475+O00167. AlphaScreen GST-Six1/His-Eya2 binding, biochemical; hits give low values; control for the full effect not named in the record. activity change, % (test concentration not listed). 0.56% of 360,000 active. AID 651725; in the data active = activity change below about -65%; inconclusive = about -30% to -65%; inactive = above about -30%; also: % is scaled to controls: 0 for no effect and ±100 for the full control effect; compound concentration not given in the record
Target sequence (O00167 whole entry, looked up): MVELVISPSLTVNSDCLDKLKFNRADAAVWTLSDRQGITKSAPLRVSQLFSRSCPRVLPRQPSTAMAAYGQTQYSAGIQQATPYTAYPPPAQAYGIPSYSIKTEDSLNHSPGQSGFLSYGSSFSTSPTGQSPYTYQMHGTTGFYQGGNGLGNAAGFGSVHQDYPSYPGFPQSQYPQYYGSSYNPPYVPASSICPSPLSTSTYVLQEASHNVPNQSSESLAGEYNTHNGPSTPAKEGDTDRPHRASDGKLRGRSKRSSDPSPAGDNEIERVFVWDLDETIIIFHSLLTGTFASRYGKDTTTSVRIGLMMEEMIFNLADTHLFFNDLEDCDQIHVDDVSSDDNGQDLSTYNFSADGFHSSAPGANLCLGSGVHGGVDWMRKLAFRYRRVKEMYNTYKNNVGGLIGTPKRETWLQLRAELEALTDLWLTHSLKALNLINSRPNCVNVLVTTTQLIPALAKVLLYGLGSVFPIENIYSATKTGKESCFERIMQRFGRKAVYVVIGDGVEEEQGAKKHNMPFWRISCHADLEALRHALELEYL
Target sequence (Q15475 whole entry, looked up): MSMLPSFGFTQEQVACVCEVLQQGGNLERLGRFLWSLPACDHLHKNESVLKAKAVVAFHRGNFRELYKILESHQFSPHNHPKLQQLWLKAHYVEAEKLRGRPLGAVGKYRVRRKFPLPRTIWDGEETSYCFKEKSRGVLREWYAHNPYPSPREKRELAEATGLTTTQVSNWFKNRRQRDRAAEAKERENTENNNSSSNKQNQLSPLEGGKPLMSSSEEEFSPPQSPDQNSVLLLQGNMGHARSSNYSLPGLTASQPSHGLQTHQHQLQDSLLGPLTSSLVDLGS
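Six1/Eya2 binding was read as AlphaScreen signal after compounds were pinned into GST-Six1 plus His-tagged Eya2 (5X stock 250/500 nM) in pH 8.0 Tris/NaCl/TCEP buffer, beads added, then incubated 1 h, 37 C, dark.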
TRPML1 ag: human mucolipin-1 channel agonism; 0.12% of 410,000 active; AID 624414; Q9GZU1; activation, % (no concentration beside the values); TRPML1-expressing cells, Ca2+ dye fluorescence, FDSS; host cell line not named in the record; reference of the full effect not given here; in the data active = activation above about 50%; inconclusive = about 30% to 50%; inactive = below about 30%; also: 0% is about no effect; the text of the record puts the active cut at 80%
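Agonist activity was taken from a 110 s kinetic Ca2+ dye read on the FDSS after pinning compounds onto TRPML1-DL cells. The cells were seeded at 1,500/well with Tet inducer, incubated about 16 h, then dye-loaded at room temperature.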
CtBP-E1A blk: blocks the CtBP interaction with E1A; 0.49% of 340,000 active; AlphaScreen GST-E1A/His-CtBP binding, 1536-well; hits give low values; control for the full effect not named in the record; activity change, % (test concentration not listed); in the data active means activity change below about -65%; inconclusive means about -30% to -65%; inactive means above about -30%; also: % is scaled to controls: 0 for no effect and ±100 for the full control effect; compound concentration not given in the record
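AlphaScreen with 125 nM GST-E1A and 125 nM His-CtBP (5X stocks) in Tris pH 8.0, 300 mM NaCl, BSA, Tween 20, TCEP. Compounds preincubated 2 h at 37 deg C, then glutathione donor/nickel acceptor beads added for 1 h at 37 deg C in dark.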
The depositor's hits bear a star; ? = inconclusive; . = no result given; [ ] = dose if it differs, or a comment.

SMILES | D2 potentiator | D2 agonist | PINK1 modulator | Six1-Eya2 blk | TRPML1 ag | CtBP-E1A blk
O=C(Nc1ccccc1C(=O)N1CCOCC1)c1ccncc1 | 8 | -0.5 | -2.6% | 15 | 1.0 | -2
Cc1cc2c(NCCc3ccccc3)ncnc2s1 | 0 | 5.3 | -0.7% | -16 | 0.3 | -19
CC1CCN(c2ccccc2N)CC1 | -14 | -4.1 | . | -5 | -0.5 | -2
C[C@@H]1CCCCO[C@H](CN(C)C(=O)NC2CCCCC2)[C@@H](C)CN([C@H](C)CO)C(=O)c2cc(NC(=O)c3ccccc3)ccc2O1 | -4 | 1.7 | 4.5% | -1 | -0.4 | 5
COC(=O)C1CSC(C(=O)OC)N1C(=O)CN1CCN(c2ccccc2)CC1 (stereo not given) | -5 | -6.1 | 0.6% | -4 | -0.6 | -4
Cc1ccc(C(=O)N2CC3(C)CN(C(=O)c4ccc(C)cc4)CC(C)(C2)C3=O)cc1 | 0 | -1.5 | -1.9% | 7 | 0.2 | .
COc1ccc(/C(O)=C2/C(=O)C(=O)N(Cc3cccnc3)C2c2ccccn2)cc1 (stereo not given) | -6 | -3.1 | 0.5% | -7 | -0.1 | -2
Cc1ccc(S(=O)(=O)N2CC(C(=O)O)Oc3ccccc32)cc1 (stereo not given) | 5 | 0.8 | -0.2% | 8 | 0.4 | 2
CSCCC(NC(=O)C1CCC(C)CC1)C(=O)O (stereo not given) | -1 | -1.4 | 2.9% | -1 | -0.1 | 4
O=C(CSc1nc2[nH]ncc2c(=O)[nH]1)Nc1ccc(Cl)cc1 | -1 | -4.8 | 4.2% | -8 | -0.5 | 0
Cc1c(NC(=O)c2ccc(Cl)s2)c(=O)n(-c2ccccc2)n1C | -10 | -2.1 | -0.4% | -2 | -0.2 | 9
CCOC(=O)c1c(NC(=O)COC)sc2c1CCCC2 | -6 | -1.7 | 7.6% | 0 | 0.7 | 4
CCN(CC(=O)Nc1c(F)cccc1F)C(=O)c1cccc(-n2cccc2)c1 | 10 | -1.3 | -2.6% | -27 | 1.4 | -3
COc1cc(S(=O)(=O)Nc2ccc3cn[nH]c3c2)ccc1Cl | 1 | -0.8 | -0.9% | 1 | 0.4 | -13
Cn1ncc(N=Cc2ccccc2[N+](=O)[O-])c1C(N)=O | -1 | -4.1 | -1.2% | -13 | -0.8 | 0
CCCSc1nnc(-c2ccccc2N)c(=O)[nH]1 | -4 | -2.0 | 34%[38.3 µM] | -1 | 0.7 | 5
CCOC(=O)N1CCC(NS(=O)(=O)c2ccc(C#N)cc2)CC1 | -4 | -8.3 | 1.5% | 12 | -0.3 | -4
Cc1cc(C(=O)COc2ccccc2C(N)=O)c(C)n1C1CC1 | -4 | -5.2 | 2.4% | -13 | -0.1 | -15
CCc1nc2ccc(C(=O)N3CCN(C(=O)c4ccco4)CC3)cn2c1N(C)Cc1nccn1C | -12 | -4.4 | 1.6% | 12 | -0.1 | -6
C=CCSc1nnc(NC(=O)c2ccc(S(=O)(=O)NCC3CCCO3)cc2)s1 (stereo not given) | 6 | -0.5 | -0.8%[38.3 µM] | 7 | 0.1 | 13
Cc1c(NC(=O)C2CCN(S(=O)(=O)c3cccs3)CC2)c(=O)n(-c2ccccc2)n1C | -8 | -3.0 | -1.1% | -7 | -0.6 | .
Cc1cnc2c(N)cc(C)c(C)c2c1 | -9 | -0.4 | 1.6% | -4 | 0.3 | -25
O=C(Nc1nnc(C23CC4CC(CC(C4)C2)C3)s1)c1ccc(N2C(=O)CCC2=O)cc1 | -11 | -3.9 | 1.6% | -3 | 0.0 | 3
CS(=O)(=O)N(CC(=O)Nc1ccc(CC#N)cc1)c1ccc(C23CC4CC(CC(C4)C2)C3)cc1 | 5 | 1.2 | 4.1%[38.3 µM] | -9 | -0.1 | 13
CCOCCc1nnc(NC(=O)CCc2ccccc2)s1 | -7 | -3.6 | 0.6% | 10 | 1.2 | .

The closing two compounds of the section above lead into the next:
SMILES | D2 potentiator | D2 agonist | PINK1 modulator | Six1-Eya2 blk | TRPML1 ag | CtBP-E1A blk
CS(=O)(=O)N(CC(=O)Nc1ccc(CC#N)cc1)c1ccc(C23CC4CC(CC(C4)C2)C3)cc1 | 5 | 1.2 | 4.1%[38.3 µM] | -9 | -0.1 | 13
CCOCCc1nnc(NC(=O)CCc2ccccc2)s1 | -7 | -3.6 | 0.6% | 10 | 1.2 | .
CCc1ccc(-c2cc(C)no2)cc1S(=O)(=O)N1CCN(c2ccc(F)cc2)CC1 | -13 | -1.4 | 4.1% | -20 | 0.9 | ?
COc1ccc(/C=C2/C(=O)N(Cc3ccccc3)N=C2C)cc1 | -17 | -1.6 | 12% | -3 | 0.7 | 4
CC(C)OCCCNC(=O)Cn1nc(-c2ccccc2)ccc1=O | -7 | 1.4 | -7.0%[38.3 µM] | 0 | 0.2 | 49
CCOCCCN1C(=O)CN(C2CCC(C)CC2)C(=O)C1c1ccc(C)cc1 (stereo not given) | 2 | -0.3 | 0.8% | 5 | 1.4 | -4
COc1ccc(CNCCS(=O)(=O)NCc2ccc(OC)cc2)cc1 | -12 | -2.3 | 0.0% | -1 | -0.7 | 2
O=C1NC(Cc2ccc(O)cc2)c2nc3ccc(F)cc3c(=O)n2-c2cc3ccccc3cc21 (stereo not given) | . | 11 | 3.4% | -4 | . | -11
O=C(COC(=O)c1cc([N+](=O)[O-])ccc1NCCO)c1ccccc1 | -13 | -1.9 | -1.0% | -5 | 1.3 | -2
CC(Sc1nnc(C2CC2)n1C1CC1)C(=O)c1ccc(F)cc1 (stereo not given) | -4 | -3.3 | -1.4% | 7 | 0.2 | -3
Cc1noc(C)c1C(=O)Nc1nccs1 | -16 | -8.4 | -0.2% | -3 | 1.2 | -2
O=C(CCCc1nc(-c2ccccc2)no1)NCc1cccnc1 | -4 | -0.3 | ? | -2 | -1.0 | 0
COc1ccc(OCCNS(=O)(=O)Cc2ccccc2)cc1 | 12 | -3.4 | -1.3% | -2 | 0.3 | 1
O=C1C=CC(=Nc2ccc3c(c2)Cc2cc(F)ccc2-3)O1 | -15 | -7.6 | 7.9% | -9 | 2.3 | -6
COc1cccc(-c2nc(CS(=O)(=O)CC(=O)N3CCCCC3)c(C)o2)c1 | -8 | 2.3 | -0.4% | -8 | 0.7 | -23
COC(=O)/C=C1/S/C(=N/NC(=O)c2ccccc2OC)NC1=O | 18 | ? | -0.4% | 2 | 3.0 | 5
CN(c1ccccc1)c1nc(N)c([N+](=O)[O-])c(N2CCCCC2)n1 | -20 | -5.4 | 0.4% | -16 | -0.4 | .
CC(C)Cn1c(N)c(C(=O)COC(=O)C2Cc3ccccc3CN2S(C)(=O)=O)c(=O)n(C)c1=O (stereo not given) | 17 | 3.7 | -2.4% | -3 | 0.1 | -3
O=c1ccnc(SCn2nnc3ccccc3c2=O)[nH]1 | -3 | -5.1 | 11%[38.3 µM] | 1 | 0.3 | 5
O=C1CC(c2ccc(Cl)cc2)Oc2ccc(Cl)cc21 (stereo not given) | -3 | 2.4 | 9.1% | 10 | 3.2 | 8
CCOC(=O)c1cnc2ccccc2c1Nc1cc(C(=O)O)ccc1C | -4 | 0.4 | 1.6% | -2 | 1.2 | .
CCOc1ccc(NC(=O)CN(c2cc(C)cc(C)c2)S(=O)(=O)c2c(C)noc2C)cc1 | -4 | -3.0 | 3.7% | -5 | -0.4 | -1
COc1cccc(OC)c1C(=O)N1CCN(c2c(Cc3ccccc3)c(C)nc3ncnn23)CC1 | -9 | -1.8 | -2.5%[38.3 µM] | -2 | -0.6 | -3
CCN1C[C@@H]2[C@@H]3C(=O)N(C)C(=O)[C@@H]3[C@](Cc3ccccc3)(C1=O)N2C(=O)c1ccc(F)cc1 | -2 | -2.2 | -1.1% | 2 | -0.7 | 5
COc1ccc(Cl)cc1NC(=O)c1sc2nc(C)nc(N3CCOCC3)c2c1C | -5 | 0.8 | 3.3% | -2 | 0.0 | -21
Cc1cccc(C)c1-n1nnnc1C(CCc1ccccc1)N1CCN(C/C=C/c2ccccc2)CC1 (stereo not given) | -9 | -3.6 | -0.4% | 0 | 0.0 | 5
CN1CCN(C(=S)Nc2ccc(Cl)c(Cl)c2)CC1 | -15 | -4.1 | 0.5% | -4 | -0.1 | 8
New compounds follow:
SMILES | D2 potentiator | D2 agonist | PINK1 modulator | Six1-Eya2 blk | TRPML1 ag | CtBP-E1A blk
O=C(Cn1c(=O)n(Cc2ccco2)c(=O)c2ccccc21)NCC1CCCO1 (stereo not given) | -44 | -4.7 | 1.2% | -1 | -0.9 | -1
CN(C(=O)CN1C(=O)c2cc(Cl)c(Cl)cc2C1=O)C1CCS(=O)(=O)C1 (stereo not given) | -25 | -6.0 | 3.0% | -1 | -0.2 | 7
COc1ccc(NC(=O)/C=C/c2cc(Br)ccc2OC)cc1 | -43 | -2.1 | 5.1% | -6 | 3.4 | -9
COc1ccc(C2CC(=O)c3sc(NC(C)=O)nc3C2)cc1 (stereo not given) | -7 | -5.1 | 0.2% | 3 | -0.1 | 9
COC(=O)C(NC(=O)C(C)Oc1ccccc1)C(C)C (stereo not given) | -1 | -0.9 | 0.1%[38.3 µM] | 3 | 0.5 | 6
COc1ccc(OC)c(NC=C2C(=O)OC(C)(C)OC2=O)c1 | 23 | 1.4 | 3.3% | 5 | 1.9 | 4
COc1ccc(CCn2ccc(O)c(Cc3c(F)cccc3Cl)c2=O)cc1OC | 0 | -4.7 | 1.2% | 6 | 0.5 | 10
CCOC(=O)N1CCC(NC(=O)c2ccccc2C(=O)O)CC1 | 0 | -1.4 | -1.0% | -3 | 0.7 | -20
O=C(COC(=O)/C=C/c1ccc([N+](=O)[O-])cc1)NCC1CCCCC1 | -7 | 4.7 | -1.0% | 3 | 1.9 | -9
CN(CC1CCCO1)S(=O)(=O)c1ccc(C(=O)Nc2ccc(S(N)(=O)=O)cc2)cc1 (stereo not given) | -11 | 0.4 | 1.5% | 7 | 0.2 | 0
CCOC(=O)c1[nH]c2ccc(OC)cc2c1NC(=O)c1cccc(OC)c1 | -14 | -2.8 | 1.2% | -3 | 0.0 | -9
COc1cccc(NC(=O)CCc2nnc3ccc(N4CCC(C)CC4)nn23)c1 | -1 | -3.1 | -0.6% | -1 | -0.8 | 3
COc1ccccc1NS(=O)(=O)c1cccc(C(=O)NNC(=O)C(NC(N)=O)C(C)C)c1 (stereo not given) | -10 | -2.9 | -0.2% | 2 | . | 1
COc1cccc(C(=O)Nc2ccc3c(c2)OCO3)c1OC | -5 | -6.3 | 0.7% | 3 | -0.4 | 0

Structures from the list above that contain a nitro group on carbon (4):
SMILES | D2 potentiator | D2 agonist | PINK1 modulator | Six1-Eya2 blk | TRPML1 ag | CtBP-E1A blk
Cn1ncc(N=Cc2ccccc2[N+](=O)[O-])c1C(N)=O | -1 | -4.1 | -1.2% | -13 | -0.8 | 0
O=C(COC(=O)c1cc([N+](=O)[O-])ccc1NCCO)c1ccccc1 | -13 | -1.9 | -1.0% | -5 | 1.3 | -2
CN(c1ccccc1)c1nc(N)c([N+](=O)[O-])c(N2CCCCC2)n1 | -20 | -5.4 | 0.4% | -16 | -0.4 | .
O=C(COC(=O)/C=C/c1ccc([N+](=O)[O-])cc1)NCC1CCCCC1 | -7 | 4.7 | -1.0% | 3 | 1.9 | -9
